N370S GC mod: inhibitors or activators of N370S glucocerebrosidase for Gaucher disease. P04062. N370S GC spleen homogenate, 4MU-glucoside fluorescence. Potency, µM (titrated, usually from 59.4 µM), inactives show at the top dose activity change, negative = inhibition, hits mostly inhibitors. 330,000 compounds, 0.092% hits. AID 2101;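 note: 0% = full enzyme activity and -100% = no enzyme basal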
FEN1 inhibitor: human FEN1 inhibition; P39748; Recombinant FEN1 flap cleavage, fluorescence, 15 min; Potency, µM (series often up to 114 µM), for inactives: at the highest dose activity change, negative = inhibition, actives largely listed as inhibitors; 390,000 compounds, 0.35% hits; AID 588795; note: nearly all actives have a fitted effect of over 65% in size
Target sequence (P39748 whole entry, looked up): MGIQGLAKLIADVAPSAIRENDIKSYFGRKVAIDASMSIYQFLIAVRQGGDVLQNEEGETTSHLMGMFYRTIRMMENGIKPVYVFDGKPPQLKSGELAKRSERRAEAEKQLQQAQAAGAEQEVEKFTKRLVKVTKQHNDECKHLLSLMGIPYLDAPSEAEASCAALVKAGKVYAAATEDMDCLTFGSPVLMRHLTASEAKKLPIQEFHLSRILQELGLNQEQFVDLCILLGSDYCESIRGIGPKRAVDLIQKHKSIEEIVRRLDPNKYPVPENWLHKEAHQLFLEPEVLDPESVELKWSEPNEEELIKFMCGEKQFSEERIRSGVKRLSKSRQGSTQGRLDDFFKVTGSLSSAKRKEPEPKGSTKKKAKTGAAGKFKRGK
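Read-out was taken twice, immediately and after 15 min, following addition of 50 nM substrate to 10 nM FEN1 that had sat with test compound for 15 min at room temperature. Curves came from a four-parameter Hill model.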
* = called active by the depositor; ? = inconclusive; nt = no result given; & = joins results of further samples; [ ] = dose if it differs, or a comment. Calls come from the whole dose curve; as a rule, active = well fitted curve in the direction sought with a large enough effect; inconclusive = small, poorly fitted or top-dose-only effect, or another doubt; inactive = no such curve, though single readings can be large; an effect the other way counts as inactive or inconclusive. Unless noted, % is set by controls: 0 for no effect and ±100 for the full control effect; potency is the fitted concentration of half-maximal effect. The list is partial, and most or all hits are left out here.

N370S GC mod	FEN1 inhibitor	molecule
7%	6%	Cc1cc(Cl)c2oc(C(=O)N(C)C(C)c3ccccn3)c(C)c2c1 (centres undefined)
1%	1%	COc1ccc(C(=O)N(C)C2CCCCC2)cc1OC1CCN(C(C)C)CC1
0%	12%	O=C(Nc1ccc(-c2csc(Nc3ccc(Cl)cc3)n2)cc1)c1cccc(C(F)(F)F)c1
nt	-4%	O=C(Nc1cccc(C(F)(F)F)c1)c1cccc(C(=O)Nc2cccc(C(F)(F)F)c2)c1
-14%	-12%	CCOC(=O)c1ccc(NC(=O)CSc2nnc(CNC(=O)c3ccco3)o2)cc1
-14%	-7%	Cc1ccc(-n2nc3c(=O)n(CCCC(=O)N4CCC(C)CC4)nc(C)c3c2C)cc1
11%	nt	Cc1ccc(C2(C(F)(F)F)N=C3Sc4cc(C)ccc4N3C(=O)N2)cc1 (centres undefined)
-3%	-10%	COC(=O)c1cc(Cl)c(NC(=O)c2ccco2)cc1OC
3%	3%	COc1ccc(NS(=O)(=O)c2ccc(O)c(C(=O)OCC(=O)NC3CCCCC3)c2)cc1
nt	7%	O=C(NCc1cccc(Br)c1)C1CCCCN1S(=O)(=O)c1ccc(F)cc1 (centres undefined)
3%	5%	CCCC1N2CC3([N+](=O)[O-])CN1CC([N+](=O)[O-])(C2)C3(C)C (centres undefined)
-8%	2%	O=C(CN1C(=O)COc2ccccc21)N(Cc1cccnc1)Cc1cccc(F)c1
7%	nt	Cn1c(=O)c2c(nc(N3CCN(Cc4ccccc4)CC3)n2CCSc2ncccn2)n(C)c1=O
4%	0%	Cc1nc(CNS(=O)(=O)c2ccc(Oc3ccccc3)cc2)cs1
-2%	1%	Cc1ccccc1NC(=O)c1c2c(nc3ccccc13)CCC2
-8%	?	COc1ccc(C(=O)N/N=C/c2sc(N3CCOCC3)nc2-c2ccccc2)cc1OC
4%	0%	O=C(CC1C(=O)NCCN1Cc1ccccc1)NCCN1CCCCC1=O (centres undefined)
nt	-5%	COc1ccc(NS(=O)(=O)c2ccc(C(=O)Nc3c(C)n(C)n(-c4ccccc4)c3=O)cc2)cc1
nt	6%	O=S(=O)(c1ccc(Cl)nc1)N1CCOCC1
-3%	-1%	c1ccc(CN2CCC3(CC2)Nc2ccccc2S3)cc1
-8%	-11%	COc1ccc(C(=O)NC2CCN(C(=S)Nc3ccc(C)cc3)CC2)cc1
-9%	-21%	O=C(Cc1ccc(Cl)cc1)Nc1ccc(SC(F)F)cc1
7%	-3%	Cn1cnnc1SCC(=O)NC(=O)NC1CCCC1
nt	2%	CC(C)(C)OC(=O)C[C@@H]1C/C=C\C[C@@H](CC(=O)NCCO)C(=O)N[C@H](Cc2ccccc2)COC1=O
1%	-22%	N#C/C(=C\c1cccc(Oc2ccc(C(F)(F)F)cc2[N+](=O)[O-])c1)c1nc2ccccc2[nH]1
-3%	17%	N#CC1(NC(=O)CSc2nc3ccc([N+](=O)[O-])cc3s2)CCCCC1
4%	nt	O=C(CNc1c(Br)cc(Br)cc1Br)NN=C1CCCCC1
0%	-6%	Cc1ccc(NCCC(=O)c2ccc(Cl)cc2)cc1
5%	1%	CCCN1C(=O)CC(c2ccco2)Sc2ccccc21 (centres undefined)
26%	-7%	C[C@@]12C(=O)Nc3cc(Cl)ccc3C(=O)N1[C@H]1c3ccccc3OC[C@@H]1[C@@H]2c1ccccc1

Record cards, from the list above. Screens in order: N370S GC mod, FEN1 inhibitor
`CC(C)(C)OC(=O)C[C@@H]1C/C=C\C[C@@H](CC(=O)NCCO)C(=O)N[C@H](Cc2ccccc2)COC1=O` is listed with nt, 2%
`O=C(CNc1c(Br)cc(Br)cc1Br)NN=C1CCCCC1` is listed with 4%, nt
`N#C/C(=C\c1cccc(Oc2ccc(C(F)(F)F)cc2[N+](=O)[O-])c1)c1nc2ccccc2[nH]1` is listed with 1%, -22%

Back to the main list with the five entries that preceded the break.
N370S GC mod	FEN1 inhibitor	molecule
-3%	17%	N#CC1(NC(=O)CSc2nc3ccc([N+](=O)[O-])cc3s2)CCCCC1
4%	nt	O=C(CNc1c(Br)cc(Br)cc1Br)NN=C1CCCCC1
0%	-6%	Cc1ccc(NCCC(=O)c2ccc(Cl)cc2)cc1
5%	1%	CCCN1C(=O)CC(c2ccco2)Sc2ccccc21 (centres undefined)
26%	-7%	C[C@@]12C(=O)Nc3cc(Cl)ccc3C(=O)N1[C@H]1c3ccccc3OC[C@@H]1[C@@H]2c1ccccc1
-1%	12%	Cc1noc(C)c1CCC(=O)N1CCCC(N2CCN(c3ccc(F)cc3)CC2)C1 (centres undefined)
?	1%	CCOC(=O)N1CCN(C(=O)c2c[nH]c3ccc(S(=O)(=O)N(C)c4ccccc4C)cc3c2=O)CC1
-1%	-6%	CCN(C)Cc1c(C(=O)N2CCc3ccccc3C2)nc2ccc(Cl)cn12
7%	3%	COc1ccc(/C=N/NC(=O)C(=O)NCc2cccnc2)cc1OC
-7%	14%&-7%	COC(=O)CSc1nc(-c2ccc(F)cc2)cc(C(F)(F)F)n1
-10%	-9%	Cc1occc1C(=O)Nc1cccnc1
17%	-8%	Cn1c(=O)[nH]c(=O)c2c1nc(Sc1ncccn1)n2CCCc1ccccc1
-4%	2%	Cc1ccc(NC(=O)c2nnn(CC(=O)Nc3ccc4c(c3)OCO4)c2N)cc1C
nt	10%	COc1ccccc1CCNC(=O)C(=O)NCC(c1cccs1)S(=O)(=O)c1ccc(F)cc1 (centres undefined)
9%	-1%	Cc1ccc2[nH]c(=O)c(CN(CCCO)C(C)c3nnnn3Cc3ccco3)cc2c1 (centres undefined)
nt	-6%	CCCN1CN=C(NS(=O)(=O)c2ccc(NC(C)=O)cc2)NC1
3%	-7%	CCOc1ccc(NC(=O)CSc2nc3[nH]ncc3c(=O)n2-c2ccccc2OC)cc1
-1%	-7%	Cc1ccc(C)c(N2N=C(C(=O)OCC(=O)N(C)c3ccccc3)CCC2=O)c1
-4%	-11%	O=C(O)C(Cc1ccccc1)n1cccc1 (centres undefined)
2%	-13%	O=C1CC(c2ccccc2)CC(=O)N1c1ccccc1
5%	9%	Cc1cc(Cl)ccc1C(=O)C1CCCN(C(=O)c2ccc3ncccc3c2)C1 (centres undefined)
18%	1%	CCN(CC)C(=O)C1CC(=O)OC12CCCCC2 (centres undefined)
nt	39%[activator]	O=C(Nc1ccccc1C(=O)NC1CC1)c1ccccc1F
11%	-4%	CCCCSc1nnc2c(n1)[nH]c1ccccc12
-8%	-13%	CCn1c(SCC(=O)Nc2ccc3c(c2)OCO3)nc2c1c(=O)n(C)c(=O)n2C
-18%	-7%	CC1=C(C(=O)OC(C)C)C(c2cccs2)n2ncnc2N1 (centres undefined)
-12%	0%	COC(=O)C(Cc1ccc(O)cc1)NC(=O)C1CCN(S(=O)(=O)c2ccc(C)cc2)CC1 (centres undefined)
-3%	3%	COc1ccccc1NC(=O)CCSc1nnc(-c2ccncc2)o1
5%	2%	Cc1cc(NC(=O)C2CCCO2)ccc1Br (centres undefined)
-8%	-22%	COC(=O)c1ccc(NC(=O)CSc2nnc(Cc3cccn3C)n2-c2ccc(F)cc2)cc1
-2%	6%	O=C(c1cccs1)N1CCN(C23CC4CC(CC(C4)C2)C3)CC1
6%	19%	NCCCC[C@H]1CNC(=O)C(=O)N1CCc1cccc(F)c1
-9%	5%	Cc1ccc(NC(=S)N2CCCC(O)C2)cc1 (centres undefined)
7%	1%	Cc1ccc2cc3c(NC(=O)CC(C)C)nn(C)c3nc2c1
-8%	-5%	C/C(=N/NC(=O)CNc1ccc(Cl)cc1C)c1ccc(C)cc1
-6%	15%	Cc1ccc(CN(C(=O)COc2cccc(C)c2C)C2CCS(=O)(=O)C2)o1 (centres undefined)
7%	-4%	O=C(COC(=O)c1ccco1)NCc1ccc(Cl)cc1
5%	1%	O=C(CN(Cc1ccccc1)S(=O)(=O)c1ccc2c(c1)OCCO2)Nc1ccc2c(c1)OCCO2
3%	-5%	COC(=O)c1cc(NCc2ccccc2F)ccc1N1CCOCC1
nt	-18%	COc1ccc(OC)c(CC(=O)Nc2cc(S(=O)(=O)N3CCCCC3)ccc2C)c1
-11%	-1%	CCOC(=O)CSc1nnc2n(Cc3ccccc3)c(=O)c3c4c(sc3n12)CCC4
2%	4%	COc1ccc(CCNC(=O)CC2SC(=NCc3ccccc3OC)NC2=O)cc1 (centres undefined)
-3%	4%	CC1CN(C(=O)c2ccc(-c3ccccc3Cl)o2)CC(C)O1 (centres undefined)
nt	3%	COc1ccc([C@H]2CC(=O)C=C(c3ccc4c(c3)OCO4)C2)cc1
5%	-21%	N#CCCn1nc(-c2ccccc2)cc1-n1c(C(F)(F)F)nc2ccccc21
-11%	-11%	COc1ccc(C(=O)NCCSCc2ccccc2C)cc1
4%	-1%&1%	COc1ccc(CNC(=O)CCS(=O)(=O)c2ccc3c(c2)oc(=O)n3C)cc1
-3%	-6%	O=C(CCn1cccn1)Nc1ccc2c(c1)OCO2
1%	5%	Cc1ccc(N2CC(C(=O)Nc3nnc(SCC(N)=O)s3)CC2=O)cc1 (centres undefined)
?	-4%	N#C/C(=C\c1c(Oc2ccccc2Cl)nc2ccccn2c1=O)C(=O)NC1CCS(=O)(=O)C1 (centres undefined)
nt	2%	Cc1cccc2sc(N3CCN(C(=O)CS(=O)(=O)c4ccc(F)cc4)CC3)nc12
-2%	1%	COc1ccc(N(CC(=O)NC2CCCC2)C(=O)Cn2nnc(-c3ccc(OC)c(OC)c3)n2)c(OC)c1
2%	9%	COc1cc2nc(CN(C)Cc3ccc(OC)c(OC)c3OC)[nH]c(=O)c2cc1OC
-24%	11%	COc1ccc(-c2noc(CCC(=O)NCCN(C)Cc3ccccc3)n2)cc1
nt	-5%	COc1ccc(NC(=O)Cn2c(=O)n(-c3ccccc3)c(=O)c3c4c(sc32)CCCC4)c(OC)c1

New compounds follow
N370S GC mod	FEN1 inhibitor	molecule
-12%	2%	COc1ccc(Cl)cc1Nc1nc(-c2sc(NC(=O)CC(C)C)nc2C)cs1
11%	4%	NNc1nc2ccccc2c(=O)n1Cc1ccccc1
-1%	0%	Cc1ccc(C)c(COc2coc(CN3CCN(C(=O)c4ccco4)CC3)cc2=O)c1
-3%	3%	CC1CCN(S(=O)(=O)c2cn(CC(=O)Nc3cccc(C#N)c3)cn2)CC1
17%	-5%	Cc1ccccc1NC(=S)NC(=O)CCc1ccccc1
2%	-15%	CCCN(CCC)CCNC(=O)C1CCCN(S(=O)(=O)c2ccc3c(c2)oc(=O)n3C)C1 (centres undefined)
-11%	-14%	O=C(NC1CC1)c1c[nH]c2ccc(S(=O)(=O)Nc3cccc(C(F)(F)F)c3)cc2c1=O
0%	10%	CCOC(=O)C(NC(C)=O)(Nc1ccc(S(=O)(=O)Nc2ccncn2)cc1)C(F)(F)F (centres undefined)
nt	-2%	O=C(COc1ccc(Cl)cc1)NNC(=O)c1ccc(=O)[nH]c1
nt	-23%	CCc1ccc(NC(=O)c2cnn(-c3c(C)cccc3C)c2C2CCN(C(=O)OC(C)(C)C)CC2)cc1
nt	-3%	CC(C)(C)C(=O)NCC(c1ccc2c(c1)OCO2)N1CCOCC1 (centres undefined)
4%	-2%	CC(=O)Nc1ccc(Oc2cc(C#N)c(C#N)cc2N2CCOCC2)cc1
-2%	-8%	Cc1ccc(S(=O)(=O)Nc2c(O)c3ccccc3oc2=O)cc1C
9%	3%	CCOC(=O)NC(=O)c1cn(N(C)c2ncc(C(F)(F)F)cc2Cl)c(=O)[nH]c1=O
-6%	3%	Cc1ccc(C#CC[N+]2(C)CCCCC2)cc1
nt	-18%	COC(=O)c1ccc(CNC(=O)COC(=O)c2cc(Cl)ccc2O)cc1
-3%	-4%	COc1ccc(-c2cn(CCO)c(-c3ccc(Cl)nc3)n2)cc1
-4%	2%	Cn1c(-c2ccc(F)cc2)cnc1SCC(=O)NCc1ccco1
11%	11%	Cc1ccc(CSC2=Nc3ccccc3C3=NC(=O)CN23)cc1
8%	2%	O=C(CNC(=S)N(Cc1ccccc1)Cc1ccccc1F)NCc1ccccc1
-6%	-1%	COc1ccc(CCNC(=O)c2ccc3nc[nH]c3c2)cc1
-27%	-2%	CC1CN(C(=O)COc2ccc3ccccc3c2Br)CC(C)O1 (centres undefined)
0%	9%	Cc1cc(C)n(C(=O)c2ccccc2[N+](=O)[O-])n1
3%	0%	Cc1ccc(-c2ccc(S(=O)(=O)N3CCCC3)cc2)cc1
?	-19%	CCCCC(=O)NC(c1ccco1)c1c(O)ccc2ccccc12 (centres undefined)
-20%	-5%	O=C(NCc1ccccc1)C(c1ccncc1)N(C(=O)c1csnn1)C1CC1 (centres undefined)
0%	0%	Cc1cc(OCC(=O)NNC(=O)c2ccncc2)cc(C)c1Cl
nt	-2%	O=C(CNC(=O)OCc1ccccc1)Nc1ccc(F)cc1
nt	3%	O=C(Nc1ccc(N2CCOCC2)cc1N1CCOCC1)c1ccccc1
-9%	-13%	Cc1ccc(CN2CCC(C(=O)Nc3cccc(-c4cccc(F)c4)c3)CC2)o1
-14%	2%	CN1CCN(C(=O)CC23CC4CC(CC(C4)C2)C3)CC1
-20%	2%	Cc1cccc(N2CCN(C(=O)C3CCN(S(=O)(=O)N4CCOCC4)CC3)CC2)c1C
-7%	13%	O=C(NCc1cccnc1)c1cccc(NS(=O)(=O)c2ccc(Br)cc2)c1
23%	-3%	COc1ccc([N+](=O)[O-])cc1NC(=O)C(C)N(C)Cc1ccc(Br)cc1 (centres undefined)
3%	-2%	CN(C(=O)c1ccccc1OCc1ccc(F)cc1)c1c(N)n(Cc2ccccc2)c(=O)[nH]c1=O
-6%	-3%	CCN(CC)c1ccc(NC(=O)CN2CCN(CC(=O)Nc3ccc(F)cc3)CC2)cc1

High-throughput results from PubChem BioAssay.
